Ba CapD inh = CapD enzyme inhibition. purified CapD enzyme, fluorescence intensity read-out; active compounds read low; some hits fall short of the stated cut. AID 492967. 140,000 tested, 0.23% active. z-score (test concentration not listed);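 active = z-score under -4 in either of two replicates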;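 note: stock transfer was 100 nL into about 40 µL; score is relative to mean and spread of the plate; one replicate is shown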
AID504770 = growth inhibitors of E. coli YBA685 in a screen for V. cholerae RctB (chromosome II replication) inhibitors; E. coli YBA685 rctB-dependent plasmid, OD600 growth, 3 h; active compounds read low; z-score (test concentration not listed); 130,000 tested, 0.27% active;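 active = z-score under -2 on both plates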;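 note: wells of about 30 µL received 100 nL stock; score is relative to mean and SD of the test wells; the first replicate is given; strong numbers were not always called active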
* hit, by the source's call; . = no result given.

SMILES	Ba CapD inh	AID504770
C=CCn1c(-c2ccccc2)nn(CCC#N)c1=S	0.3	-0.2
CC(C)Cc1cc(C(=O)NC2CCCCC2)no1	1.3	0.2
COc1ccc(C23CC4CC(CC(O)(C4)C2)C3)cc1	-0.23	-0.25
N=C1/C(=C/c2ccc(OCc3ccccc3F)cc2)C(=O)N=C2SC=C(c3ccccc3)N12	-0.14	.
O=C1CN(Cc2nc3cc(Cl)ccc3c(=O)[nH]2)CCN1	.	-0.2
O=c1c2ccc(N3CCCCC3)c3cccc(c32)c2nc3ccccc3n12	1.2	.
CCOc1ccccc1C1CC(=O)NC(SCc2cccc3ccccc23)=C1C#N (centres undefined)	-0.33	.
CCOC(=O)N1CCC(NC(=O)C(CC(C)C)NC(=O)C2CCC(C)CC2)CC1 (centres undefined)	-0.14	0.05
O=C(COC(=O)c1cc2c3c(c1)C1C=CCC1CN3CC1CC=CC21)c1ccc([N+](=O)[O-])cc1 (centres undefined)	5.9	.
NNc1nc(-c2ccccc2)c2cc(Cl)ccc2n1	0.055	1.4
O=C(NCc1ccccc1)C1CCC1	0.18	-0.45
CC(Nc1ccc(Br)cc1)C(=O)NC(=O)NC1CCCCC1 (centres undefined)	.	0.35
CN(CC12CC3CC(CC(C3)C1)C2)C(=O)c1ccco1	-0.39	-0.55
Cc1cnc(-c2ccc(Br)cc2)nc1	0.25	0.55
CCOc1ccc2nc3c(=O)[nH]c(=O)[nH]c3nc2c1	3.4	-1.1
CC(C)c1ccc(/C=C/C(=O)NC(=S)Nc2ccc(C(=O)O)cc2)cc1	-0.18	-0.55
COc1ccc(C2=NN(CN3C(=O)C(=O)c4ccccc43)C(c3ccc(OC)cc3)C2)cc1 (centres undefined)	1.6	.
CCN1C(=O)NC(c2cc(Br)c(O)c(OC)c2)C(C(=O)OC(C)C)=C1C (centres undefined)	-0.49	.
CC1N=C(c2ccccc2)c2cc(Br)ccc2NC1=O (centres undefined)	-0.12	-0.15
c1ccc(-c2c(-c3ccccc3)n(Cc3ccco3)c3ncn4nc(-c5ccccn5)nc4c23)cc1	28	0.1

Sorted by heavy-atom count (rising): some entries from above
SMILES	Ba CapD inh	AID504770
NNc1nc(-c2ccccc2)c2cc(Cl)ccc2n1	0.055	1.4
CCN1C(=O)NC(c2cc(Br)c(O)c(OC)c2)C(C(=O)OC(C)C)=C1C (centres undefined)	-0.49	.
N=C1/C(=C/c2ccc(OCc3ccccc3F)cc2)C(=O)N=C2SC=C(c3ccccc3)N12	-0.14	.

Additional structures.
SMILES	Ba CapD inh	AID504770
O=C1CC2NCCc3cccc1c32 (centres undefined)	.	-0.25
O=C(Cc1nc2ccccc2[nH]c1=O)c1ccc(Cl)cc1	.	-0.6
NC(CSCc1ccccc1Cl)C(=O)O (centres undefined)	-0.17	-0.25
Cc1ccc(NC(=O)c2cc3cc(OC(F)(F)F)ccc3[nH]2)cc1	11	-0.75
O=C(NNC(=O)c1csc(-c2ccccc2)n1)OCCc1cccc(Cl)c1	0.055	.
COc1ccc(OC)c(C2C(C(=O)Nc3ccc(Br)cn3)=C(C)NC3=C2C(=O)CCC3)c1 (centres undefined)	3	.
CCN(c1ccccc1)S(=O)(=O)c1ccc(-c2n[nH]c(C)c2C)s1	0.73	-0.3
CN1CCN(CCCNC(=O)c2ccc3c(c2)N(Cc2ccc(F)cc2)CCS3)CC1	101	-0.8
CC(C)C(=O)Nc1ccc2oc(=O)ccc2c1	34	-0.2
FC(F)(F)C(Oc1nc(N2CCCCC2)nc(N2CCCCC2)n1)C(F)(F)F	.	-1.4
Cc1cccc(CSCc2nnc(NC(=O)/C=C/c3ccccc3)s2)c1	0.18	0.25
CCOc1ccc(-c2c[n+]3c(n2-c2ccccc2)CCCCC3)cc1	-0.02	.
Cc1cccc(C)c1NC1=NC(=S)N(c2ccccc2)C12CCC(C(C)(C)C)CC2 (centres undefined)	-0.09	.
O=S(=O)(Nc1ccc2cn[nH]c2c1)c1ccccc1	.	1.9
CN(C)c1cccc(C(=O)NCc2ccccc2)c1	.	1.6
Cc1nc2sccn2c(=O)c1S(=O)(=O)Nc1ccc(N2CCC(C)CC2)cc1	-2	-0.55
CCCOC(=O)c1ccc(Nc2c(C(=O)OCC)cnc3c(C)cc(C)cc23)cc1	0.36	.
C=CCn1c(CNC(=O)c2ccc(OC)c(OC)c2)nnc1SCC(=O)Nc1nc(C)cs1	0.24	-0.55
COC(=O)CCC(=O)c1oc2ccccc2c1N	10	.
CN(c1nnc(NC(=O)NCc2ccc(F)cc2)s1)C1CCCCC1	-0.2	-1.2
N#Cc1ccccc1OCC(=O)Nc1ccc2c(c1)OCCCO2	.	0.5
COc1cc(-c2nc3sc4c(c3c(=O)[nH]2)CCCC4)ccc1OCCOc1ccc(C(C)(C)C)cc1	0.66	.
CCOC(=O)c1n[nH]n(-c2ccc(Cl)cc2)c1=O	0.23	-0.5
O=c1o[nH]c(-c2ccccc2)c1N=Nc1c(F)cccc1Cl	0.065	.
COc1ccc2oc(C(=O)NCCNc3ncc(C(F)(F)F)cc3Cl)c(C)c2c1	.	-0.7
Clc1ccc(I)cc1Cl	-0.22	.
Cc1ccc2oc(=O)cc(CN3CCOCC3)c2c1	0.65	0.1
CC1CCN(C(=O)c2cc(Cl)ccc2Cl)CC1	-0.045	2.4
COc1ccc(CCNC(=O)c2ccccc2N)cc1	105	0.85
Cc1ccc(C2=NNC(=O)C(c3cn(CCC#N)c4ccccc34)C2)cc1 (centres undefined)	0.19	-0.65
CCOCc1cnc(C)nc1NCC(=O)c1c(C)[nH]c2ccc(OC)cc12	-0.09	0.75
C=CCn1c(C(O)c2ccccc2)nc2ccccc21 (centres undefined)	0.42	0
O=C(c1cc2cccc3c2n(c1=O)CC3)N1CCN(C(c2ccccc2)c2ccccc2)CC1	5.3	.
CC(C)(O)C#Cc1ccc(C#N)cc1	0.42	-0.75
CC(=O)N1CCN(c2ccc(Oc3ncnc4sccc34)cc2)CC1	.	0.35
CCOC(=O)c1cc(C(=O)OCC)c(NNC(=O)c2ccncc2)nc1N	0.55	.
Cc1ccc(C)n1-c1ccc(C(=O)O)c(C(=O)O)c1	-8.4*	1.1
CC1CCC(Nc2c(-c3cccc(Br)c3)nc3c(C#N)c[nH]n23)CC1 (centres undefined)	-0.02	-0.05
COc1ccc(S(=O)(=O)N(c2ccc3c(c2)CCN3C(C)=O)C2CCN(Cc3ccccc3)CC2)cc1	-0.15	.
COC(=O)c1ccc2c(c1)NC(=S)c1ccccc1S2	7	0.25

Entries of single compounds from above.
CCOc1ccc(-c2c[n+]3c(n2-c2ccccc2)CCCCC3)cc1 as listed: Ba CapD inh = -0.02; AID504770 = .
CCOC(=O)c1n[nH]n(-c2ccc(Cl)cc2)c1=O as listed: Ba CapD inh = 0.23; AID504770 = -0.5
CCN1C(=O)NC(c2cc(Br)c(O)c(OC)c2)C(C(=O)OC(C)C)=C1C (centres undefined) as listed: Ba CapD inh = -0.49; AID504770 = .

Continuation:
SMILES	Ba CapD inh	AID504770
C(=C\c1nc2ncnc(N3CCCCC3)c2[nH]1)/c1ccccc1	83	.
CCN(CC)CC(=O)Nc1c(C#N)cnn1-c1ccccc1	-1.6	1.8
COc1ccc(CCNC(=O)CCn2c(=O)sc3ccccc32)cc1OC	0.29	0.3
Cc1nnc(SC(C(=O)NC(N)=O)c2ccccc2)n1C1CCCCC1 (centres undefined)	.	0.4
Fc1ccccc1Cc1nnc2n1N=C(c1ccc(Cl)cc1)CS2	.	-0.6
CCOC(=O)c1cccc(O)c1O	-2.7*	-0.55
CCOC(CNS(=O)(=O)c1ccccc1S(C)(=O)=O)(OCC)c1ccccn1	-0.24	.
Cc1ccc(S(=O)(=O)NC2CC3CCC2(C)C3(C)C)cc1 (centres undefined)	-0.28	-0.05
O=C(Nc1ccc(Cl)cc1)Nc1cc(C(=O)NC2CC2)ccc1N1CC2CC(C1)c1cccc(=O)n1C2 (centres undefined)	0.06	-0.25
Cc1ccc(C(C)C)c(OCC(=O)N=Nc2c(O)n(CN3CCOCC3)c3ccccc23)c1	.	0.15
CC(C)NC(=S)N1CCN(Cc2c(Cl)cccc2Cl)CC1	-0.22	1.8
CS(=O)(=O)c1ccc([N+](=O)[O-])cc1	-0.65	.
Cc1ccccc1N1CC(O)(c2cccc([N+](=O)[O-])c2)[N+]2=C1SCCC2 (centres undefined)	0.48	.
O=C1C2ON(c3ccccc3)C(c3ccncc3)C2C(=O)N1c1ccc(N2CCOCC2)cc1 (centres undefined)	-0.76	-0.4
Cn1c(N)nc(N)c(NC(=O)COc2ccc(Cl)cc2Br)c1=O	.	-0.75
CCOc1ccc2ccccc2c1/C=C1\N=C(c2cc([N+](=O)[O-])cc([N+](=O)[O-])c2)OC1=O	-1.1	.
O=C(O)c1ccc(Nc2ncnc3c2cnn3-c2ccccc2)cc1	.	0.95
CCCCN(CC)Cc1ccc(CNC(=O)Nc2ccccc2)o1	-5.1*	-1.2
C(=C1/CCCC2=C1Nc1ncnn1C2c1ccccc1)/c1ccccc1 (centres undefined)	.	-0.65
Cc1ccc(S(=O)(=O)N2CC(C)C(=O)CC2C)cc1 (centres undefined)	.	1.4

Brought forward from above: five entries, followed by the next part.
SMILES	Ba CapD inh	AID504770
CCOc1ccc2ccccc2c1/C=C1\N=C(c2cc([N+](=O)[O-])cc([N+](=O)[O-])c2)OC1=O	-1.1	.
O=C(O)c1ccc(Nc2ncnc3c2cnn3-c2ccccc2)cc1	.	0.95
CCCCN(CC)Cc1ccc(CNC(=O)Nc2ccccc2)o1	-5.1*	-1.2
C(=C1/CCCC2=C1Nc1ncnn1C2c1ccccc1)/c1ccccc1 (centres undefined)	.	-0.65
Cc1ccc(S(=O)(=O)N2CC(C)C(=O)CC2C)cc1 (centres undefined)	.	1.4
CCCc1ccc(CC2(CC(=O)OCC)C(=O)c3ccccc3C2=O)cc1	0.74	0.3
CN(C(=O)COC(=O)c1ccc(Cl)c(N)c1)c1ccccc1	31	0.15
CCCCNC1N=C(c2ccccc2)c2ccccc2N(C)C1=O (centres undefined)	-0.27	-0.5
COC(=O)c1sc(NC(=S)Nc2ccn(C)n2)c(C(=O)OC)c1C	-0.095	-0.65
CC1(C)CC2(CC(C)(C)N1)OC(=O)N(C1CC1)C2(C)O (centres undefined)	-0.34	-0.6
CCn1c(=O)[nH]c(=O)c2c(C(=O)OC)cc(-c3ccc(C)cc3)nc21	.	1
FC(F)(F)c1ccc(Cl)c(NC2=NCCC2)c1	-0.28	0.3
CCN(CC)C(=S)SCc1cn2ccccc2n1	.	-1
N#Cc1ccc(CSc2nncn2-c2ccccc2)cc1	.	0.5
CCc1nnc(NC(=O)CCCn2c(=O)oc3ccccc32)s1	.	-0.55
COc1ccc(CC(=O)NCCn2ccc3ccccc32)cc1	.	2.1
COc1ccc(N2Cc3cccc(C(=O)Nc4cccc(OC)c4)c3C2=O)cc1	0.11	0.2
CC(=O)N1CCC(C(=O)NCc2c(-c3ccccc3)noc2C)CC1	-0.25	0.15
Cc1noc(C)c1COc1ccc(CC(=O)NCCc2ccccn2)cc1	.	1.2
N#Cc1c(C(F)(F)F)cc(-c2ccccc2)[nH]c1=S	3.3	0.4
Brc1ccc(Oc2ncnc3c2oc2ccccc23)cc1	.	0.45
O=C(NCC(c1ccco1)N1CCCCC1)c1cc(C(F)(F)F)cc(C(F)(F)F)c1 (centres undefined)	.	-0.45
CCOc1c(CNCc2ccc3c(c2)OCO3)cccc1OC	.	-0.15
S=c1nc2c(n[nH]1)[nH]c1ccccc12	-1.2	-0.5
COc1ccccc1COc1ncnc2c1cnn2-c1ccccc1	.	1.5
Cn1c(CO)nc2cc(N=Cc3ccccc3O)ccc21	0.14	1.4
Cc1cc(C)nc(Nc2ccccc2Br)n1	0.28	0.35
O=C(Cn1nnc(-c2cccc(C(F)(F)F)c2)n1)NC1CC1	.	-0.45
CCS(=O)(=O)N1CCN(CC2CC=CCC2)CC1 (centres undefined)	-0.36	0.2
Cc1nc(-c2ccccc2)nc(OC(=O)N(C)C)c1Oc1cccc(C(F)(F)F)c1	9.7	0.15
CC(=O)Nc1ccc2c(c1)OCCO2	-0.28	.
COC(=O)CNC(c1ccccc1)c1cc(Br)ccc1NC(=O)CCN1CCOCC1 (centres undefined)	-0.33	-0.65
O=C(Nc1ccc(N2CCOCC2)cc1)c1ccc2c(=O)[nH][nH]c(=O)c2c1	.	1.4
COc1ccc(N2C(SC)=NC(=Nc3ccccc3C)C23CCC(C(C)(C)C)CC3)cc1 (centres undefined)	-0.39	.
Cc1ccc2c(C)nc(N/C(N)=N/S(=O)(=O)c3ccccc3)nc2c1	0.53	0.55
Cc1nc(SCCCCC#N)c2ccccc2n1	.	-0.9
CN1c2ccccc2C(=O)/C(=C\Nc2cc(C(F)(F)F)cc(C(F)(F)F)c2)S1(=O)=O	1.1	2.2
CCOc1cc(C2C(C#N)=C(N)Oc3n[nH]c(-c4ccc(OC)cc4)c32)cc([N+](=O)[O-])c1O (centres undefined)	-0.53	.
CCOC(=O)CSc1nc2cc(C(=O)OC)ccc2c2nc3ccccc3n12	1.3	.
CCOC(=O)c1cc(-c2cccs2)nn1-c1ccc(C)cc1C	-0.52	2.8
c1coc(C2NCCS2)c1 (centres undefined)	.	1.6
Cc1cc(Oc2ccc(N)cn2)cc(C)c1Cl	22	.
CSc1scc2c1-c1nn(C(=O)c3cccc(C(F)(F)F)c3)cc1CC2	1.2	1.4
CCc1c(O)nc(SCC(=O)Nc2nnc(SCc3ccccc3)s2)[nH]c1=O	0.055	-0.7
Cn1c(=NC(=O)C2Cc3ccccc3CN2C(=O)c2ccco2)sc2ccccc21 (centres undefined)	.	-1.4
CN(C(=O)C(C)(C)Oc1ccc(Cl)cc1)c1ccccc1	.	1.5
O=S(=O)(c1ccccc1)N1CCN(c2ncnc3sccc23)CC1	1.6	0.8
FC(F)(F)c1ccc(NCc2ccco2)nc1	0.83	-1.4

Compound activity: PubChem BioAssay, ICCB-Longwood Screening Facility, Harvard Medical School

A portion of the library. The share of hits here may be higher or lower than overall.
